From PubChem BioAssay
B2AR ag – human beta-2 adrenergic receptor agonism by FAP; Am2.2-beta2AR cells, FAP receptor internalization, flow cytometry; reference of the scale not given here; AID 504454; response, % (test concentration not listed); 0.43% of 340,000 active;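 active means response above a set limit, near 3 SD of response in nonfluorescent compounds, cut at about 42% in these data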;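 further: stock transfer was 100 nL into about 11 µL; a reference agonist was the positive control; negative values mostly stem from fluorescent compounds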
Target sequence (P07550 whole entry, looked up): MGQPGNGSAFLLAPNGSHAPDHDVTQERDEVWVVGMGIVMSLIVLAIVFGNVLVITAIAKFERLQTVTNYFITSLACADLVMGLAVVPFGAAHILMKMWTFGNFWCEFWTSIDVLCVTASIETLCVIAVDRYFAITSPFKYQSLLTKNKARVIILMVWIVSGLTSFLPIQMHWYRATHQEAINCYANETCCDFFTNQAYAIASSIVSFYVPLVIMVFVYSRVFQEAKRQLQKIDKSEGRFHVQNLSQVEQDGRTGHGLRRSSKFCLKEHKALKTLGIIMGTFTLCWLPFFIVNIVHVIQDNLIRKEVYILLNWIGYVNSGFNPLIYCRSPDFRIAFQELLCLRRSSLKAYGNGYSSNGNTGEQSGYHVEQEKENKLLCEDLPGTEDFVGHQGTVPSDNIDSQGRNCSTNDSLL
UCH37 inh – human UCH37 deubiquitinating enzyme inhibition; Q9Y5K5; purified proteasome/UCH37, Ub-AMC cleavage fluorescence; inhibition, % (no concentration beside the values); 0.33% of 330,000 active; AID 588478;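 active means mean of two replicates above 20%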;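 further: 0% = compound-free wells with enzyme and 100% = wells lacking proteasome; stock transfer was 100 nL into about 20 µL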
Target sequence (Q9Y5K5 whole entry, looked up): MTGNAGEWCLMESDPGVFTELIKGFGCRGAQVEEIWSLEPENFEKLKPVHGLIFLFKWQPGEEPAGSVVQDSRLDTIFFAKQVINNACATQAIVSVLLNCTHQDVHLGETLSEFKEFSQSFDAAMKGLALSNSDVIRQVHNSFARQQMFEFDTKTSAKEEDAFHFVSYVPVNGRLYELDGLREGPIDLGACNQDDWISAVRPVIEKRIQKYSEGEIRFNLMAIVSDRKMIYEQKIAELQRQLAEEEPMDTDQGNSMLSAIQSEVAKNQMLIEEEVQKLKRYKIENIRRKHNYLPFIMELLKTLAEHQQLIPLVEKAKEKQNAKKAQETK
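assay system = human UCH37 enzyme supplied as purified proteasome complex | amount = proteasome at 0.15 nM in the dispensed enzyme solution | schedule = 30 min compound-proteasome preincubation then 25 min substrate reaction, room temperature | measured by = fluorescence, ex 355 nm, em 460 nm | benchmarks = no-proteasome wells (full inhibition) and compound-free wells (no inhibition)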
HNF4A DNA FP – change in binding of human HNF4 alpha to DNA; P41235; HNF4a-FITC DNA binding, fluorescence polarization, 1 h; activity change, % at 10 µM; 0.3% of 360,000 active; AID 1224865; in the data active means activity change above about 30%, passing the limit was not always enough;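 further: controls were the assay level and a saturating level of protein; the project sought stronger binding though the title names inhibitors; some compounds called inactive have numbers as strong as hits; positive values seem to mean higher polarization but the record does not say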
E coli growth – blocks Escherichia coli growth; OD600, 23 h; hits give low values; OD600 absorbance (no concentration beside the values); 0.21% of 330,000 active; AID 1053175;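 active means OD600 absorbance below the run mean of sample wells minus 3.6 SD, in any replicate, cut at about 0.56 in these data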;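 further: stock transfer was 300 nL into about 60 µL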
Ecoli rRNA inh – inhibitors of bacterial rRNA selective over humanized ribosomes | E. coli WT GFP vs humanized-ribosome RFP mutants, fluorescence, 24 h; hits give low values; DMSO median 0, no signal -100 | AID 720706 | GFP signal change (wild-type ribosome), % (concentration not given with the values) | 1.6% of 350,000 active;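 active means significant combined selectivity score with lowered wild-type GFP, culture density cut under 30%, mutant RFP and density less affected; inactive means any of these conditions unmet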; further: one replicate is shown; some compounds called inactive have numbers as strong as hits
FGF22 binding – shifts melting point of recombinant human FGF22; Q9HCT0; recombinant FGF22 thermal shift, SYPRO orange fluorescence; percent of sucrose octasulfate shift, DMSO zero; calls only at 9.99 µM; 1.5% of 340,000 active; AID 651658;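 active means melting point raised past a set limit in the mean and every replicate; three in four hits are not shown here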
Target sequence (Q9HCT0 whole entry, looked up): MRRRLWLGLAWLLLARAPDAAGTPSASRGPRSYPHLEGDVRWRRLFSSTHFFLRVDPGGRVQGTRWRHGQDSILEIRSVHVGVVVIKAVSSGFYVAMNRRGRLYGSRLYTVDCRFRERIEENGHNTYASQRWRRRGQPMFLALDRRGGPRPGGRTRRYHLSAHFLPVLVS
ALR inh – human ALR oxidase inhibition via reduced H2O2. P55789. purified ALR, DTT oxidation, H2O2 HRP-luminol luminescence. inhibition, % (test concentration not listed). 3.8% of 290,000 active. AID 485317;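 active means mean and each replicate at 75% or more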;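 further: stock transfer was 7.5 nL into about 7.5 µL; 0% = neutral wells and 100% = wells with inactivated enzyme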
Ecoli rRNA inh OD600 – also measured in Ecoli rRNA inh; calls as there; OD600 change, %; measured here: OD600 growth;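 optical density of the mix in the first replicate; 0 = DMSO median and -100 = no signal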
Ecoli rRNA inh RFP – further read-out of Ecoli rRNA inh, marked with its call; RFP signal change, %; measured here: RFP humanized mutant strains;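 first replicate; 0 = DMSO median and -100 = no signal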
An asterisk follows results filed as active; i = inactive; x = not tested or not shown.

SMILES	B2AR ag	UCH37 inh	HNF4A DNA FP	E coli growth	Ecoli rRNA inh	Ecoli rRNA inh OD600	Ecoli rRNA inh RFP	FGF22 binding	ALR inh
CCOc1ccc(C2CC(=O)N(Nc3ccc([N+](=O)[O-])cc3[N+](=O)[O-])C2=O)cc1 (configuration not stated)	-6.7	7.5	-0.4	0.702	8.1	-2.9	-0.1	i	-0.1
COc1ccc(C(=O)Nc2c3c(nn2-c2ccc(Cl)cc2)CS(=O)(=O)C3)cc1	-1.8	-0.1	2.4	0.65	-2.7	-4.8	0.3	i	-3.8
COc1ccc(NC(=S)Nc2cccc3ccccc23)cc1OC	2.6	2.3	0.8	0.719	5.2	8.3	1.1	i	-17.6
CC(Sc1ccccn1)C(=O)Nc1ccccc1 (configuration not stated)	1.9	2.8	4.3	0.697	x	x	x	x	9.8
COc1cccc(N2CCN(C(=O)CC(NC(=O)c3ccccc3)c3ccccc3)CC2)c1 (configuration not stated)	-5.2	-2.8	-3.0	0.706	-6.2	-20.6	16.9	i	x
Cc1c(C(=O)OCC(=O)NCc2ccco2)oc2ccccc12	-2.7	1.2	2.3	0.678	6.7	16.4	-2.0	i	-2.9
Cc1ccccc1N(C(=O)Cc1cccs1)C(C(=O)NCC1CCCO1)c1cccnc1 (configuration not stated)	-4.4	6.5	-2.0	0.696	x	x	x	x	0.5
CCn1c(=N)n(CC(=O)C(C)(C)C)c2ccccc21	0.3	1.4	-1.1	0.629	-22.6*	1.0*	-4.0*	i	34.0
Cc1ccc(CCNC(=O)C2CCC(=O)N2CCc2ccccc2)cc1 (configuration not stated)	-3.3	1.3	0.8	0.688	-0.6	3.1	-1.7	i	x
CSc1ccc(CNC(=O)C2CCC(=O)N(CCc3ccc(Cl)cc3)C2)cc1 (configuration not stated)	x	x	-2.0	x	-23.2	-28.0	-5.0	i	x
COc1cc(Cl)c(CN2CCCC(CO)(Cc3ccccc3F)C2)cc1OC (configuration not stated)	8.4	2.8	-1.1	0.652	x	x	x	i	x
C[C@H]1CCC[C@@]2(O[C@H](CCO)C[C@H](O)[C@H]2O)O1	-2.1	-0.9	-0.3	x	13.4	18.5	0.2	i	-0.2
Cc1cc(C)c(S(=O)(=O)N/N=C/c2ccc3c(c2)OCO3)c(C)c1	-0.8	x	0.7	x	-9.6	-40.6	1.7	i	-7.2
N#CC1=C2N=C(N)c3ccccc3N2C2=C(C(=O)CCC2)C1c1cccc(Cl)c1 (configuration not stated)	9.8	3.0	-5.0	0.714	-51.8	-77.6	-14.3	x	-5.8
O=C(CSc1nncc2ccccc12)N1CCCCC1	-9.4	7.2	-6.7	0.7	16.9	11.0	1.1	i	-18.2
COc1ccc(NC(=O)C2(C)CCN2C(=O)c2ccccc2CCc2ccccc2)cc1OC (configuration not stated)	x	x	3.9	x	-7.7	-12.9	-1.9	i	x
COc1ccc(C(=O)C2CCCN(Cc3cn[nH]c3-c3ccc(F)cc3)C2)cc1OC (configuration not stated)	-9.1	1.2	-3.2	0.698	5.8	7.1	1.8	i	-27.7
CN(C)c1nc(N)nc(CSc2nnnn2-c2ccc(C(=O)O)cc2)n1	-7.4	4.1	-7.5	0.742	x	x	x	x	0.6
CCCN1CCC(=O)N(CCSc2ccc(OC)cc2)CC1	-8.3	3.2	0.8	0.663	1.5	6.3	-2.7	i	x
COc1cc(C2N(c3ccc(F)cc3)C(=O)C3CCCN32)cc(OC)c1OC (configuration not stated)	2.8	5.6	5.1	0.739	6.0	9.4	3.5	i	-50.2

In another format: results already given
| canonical_smiles | B2AR ag | UCH37 inh | HNF4A DNA FP | E coli growth | Ecoli rRNA inh | Ecoli rRNA inh OD600 | Ecoli rRNA inh RFP | FGF22 binding | ALR inh |
| --- | --- | --- | --- | --- | --- | --- | --- | --- | --- |
| C[C@H]1CCC[C@@]2(O[C@H](CCO)C[C@H](O)[C@H]2O)O1 | -2.1 | -0.9 | -0.3 | x | 13.4 | 18.5 | 0.2 | i | -0.2 |
| Cc1ccc(CCNC(=O)C2CCC(=O)N2CCc2ccccc2)cc1 (configuration not stated) | -3.3 | 1.3 | 0.8 | 0.688 | -0.6 | 3.1 | -1.7 | i | x |

Next results follow.
SMILES	B2AR ag	UCH37 inh	HNF4A DNA FP	E coli growth	Ecoli rRNA inh	Ecoli rRNA inh OD600	Ecoli rRNA inh RFP	FGF22 binding	ALR inh
O=C1c2cccc3c(N4CCOCC4)c([N+](=O)[O-])cc(c23)C(=O)N1c1cccc2ccccc12	-0.7	5.5	3.5	0.748	-15.4	-24.9	1.6	i	-6.7
CN(C(=O)CSc1nc2ccc([N+](=O)[O-])cc2s1)C1CCS(=O)(=O)C1 (configuration not stated)	-0.9	5.8	-1.5	0.678	-13.9	-11.4	-4.6	i	30.7
COCCn1c(SCC(=O)NCCCN2CCCC2=O)nc2sc3c(c2c1=O)CCCC3	-11.0	0.8	3.4	0.687	-0.2	-6.9	-1.9	i	x
COC(=O)CN1C(=O)C2(OCCCO2)c2cc(Br)ccc21	19.7	-0.7	0.0	0.72	2.9	-10.0	-2.1	x	-8.0
CCCN1C2CCCC1CC(NC(=O)c1ccc(F)cc1)C2 (configuration not stated)	0.5	6.2	-1.3	0.665	x	x	x	x	-1.9
CN(Cc1ccccc1)C(=O)c1[nH]cnc1C(=O)N[C@@H](Cc1ccccc1)C(=O)OCc1ccccc1	7.1	1.7	1.8	x	x	x	x	x	7.6
CCOc1ccc(CNC(c2ccccc2)c2ccccc2)cc1	-3.1	4.3	-3.2	0.66	-22.5	-18.9	-0.2	i	1.0
CC(=O)N(c1ccc(Br)cc1)C1C=CS(=O)(=O)C1 (configuration not stated)	5.0	5.1	-0.7	0.729	3.3	1.6	-5.9	i	64.3
CCC1CCCCN1C(=O)COC(=O)c1cccs1 (configuration not stated)	-2.8	3.8	-2.1	0.653	14.6	9.6	0.6	i	3.5
COc1ccc(N(C)S(=O)(=O)c2cccc(C(=O)NC3CCC(C)CC3)c2)cc1 (configuration not stated)	-0.3	2.2	-3.1	0.668	-22.9	-33.1	-4.3	i	2.2
O=C(OCc1cn([C@@H]2C[C@H](c3ccccc3)N(C(=O)c3cccs3)C[C@H]2O)nn1)c1ccccc1	x	x	1.8	x	-7.1	-14.8	-1.4	i	x
O=C(CCl)Nc1c[nH]c(=O)[nH]c1=O	-3.4	2.9	0.5	0.717	12.5	7.0	-0.5	i	x
COc1ccc(C(=O)NC2CC2)cc1OC1CCN(C(C)CSC)CC1 (configuration not stated)	-1.5	6.6	-1.7	0.689	13.8	13.7	0.6	i	-2.6
COc1ccc2[nH]c(C)c(CCNc3ccc(C(F)(F)F)cc3[N+](=O)[O-])c2c1	-10.8	x	-4.8	x	x	x	x	x	1.5
O=c1c2c3c(sc2[nH]c(=S)n1Cc1ccco1)CCC3	8.2	6.6	-12.0	0.71	-3.4	-2.1	5.6	i	93.5*
O=C(Cn1cc(C(F)(F)F)ccc1=O)Nc1ccc(N2CCOCC2)cc1	-1.7	-1.3	0.9	0.743	18.6	6.9	0.8	i	5.0
Cn1c(=O)c2c(nc(N3CCC(C(N)=O)CC3)n2CCSc2nc3ccccc3s2)n(C)c1=O	-12.6	-10.5	-4.1	0.682	1.5	1.4	-4.0	i	-5.5
CS(=O)(=O)C1=NSC2=NC(=O)/C(=C\c3ccc(-c4ccccc4)o3)C(=N)N21	x	9.5	x	0.68	x	x	x	x	97.1*
Nc1nn(-c2ccccc2)c(N)c1N=Nc1ccc2c(c1)OCO2	7.1	6.1	5.8	0.607	x	x	x	x	95.2*
COc1cccc(N(CC(=O)NCCSc2ccccc2)S(C)(=O)=O)c1	-4.5	0.6	-1.7	0.709	x	x	x	x	-5.0
CC(CCc1ccco1)N(C)S(=O)(=O)c1csc(C(N)=O)c1 (configuration not stated)	5.9	3.3	-0.4	0.705	-8.3	-1.8	1.4	i	-4.0
COC(=O)/C(C#N)=C/c1c(N2CCN(c3ccc(OC)cc3)CC2)nc2c(C)cccn2c1=O	16.0	7.3	-2.1	0.708	-3.9	4.5	1.1	i	3.8
Cc1cccc(C(O)c2ncc(-c3ccc(C(F)(F)F)cc3)[nH]2)c1C (configuration not stated)	x	x	2.8	x	1.3	4.2	2.2	i	x
COc1cc(C(=O)Nc2ccc(N3CCOCC3)cc2)ccc1OCc1c(C)noc1C	0.4	2.7	-1.8	0.659	x	x	x	x	-3.0
O=C(NC1C2CCCC1CN(C1CC1)C2)c1ccc(Cl)cc1 (configuration not stated)	23.3	-1.1	0.0	0.661	6.4	0.5	4.7	i	25.8
CSCCC(NC(=O)c1ccco1)C(=O)N(C)CC(=O)Nc1ccccc1Br (configuration not stated)	6.5	-0.4	4.0	0.695	6.1	5.3	0.3	i	x
O=C(c1cc2c(c(-c3cccc(-c4ccncc4)c3)n1)[C@H](CCO)N(C(=O)c1ccc3c(c1)OCO3)C2)N1CCOCC1	x	x	2.2	x	8.1	8.7	0.8	i	x
COC(OC)C12c3ccccc3C(c3ccccc31)C1C(=O)N(c3cccnc3)C(=O)C12 (configuration not stated)	2.4	5.5	-1.1	0.667	-3.4	-10.3	1.1	i	x
Cc1ccc(OCCn2cc(C=O)c3ccccc32)cc1	-4.7	6.2	3.5	0.645	-20.6	-18.0	0.2	i	19.5
CCOC(=O)N/N=C/c1c(C)nn(-c2ccccc2Cl)c1Cl	-5.4	x	-0.9	x	x	x	x	x	2.7
COc1cc2c(cc1OC)C(c1cccc(Br)c1)NC(=O)C2 (configuration not stated)	0.3	2.2	1.4	0.659	-4.6	-8.2	6.1	i	29.0
O=C(Cc1ccc([N+](=O)[O-])cc1)Nc1ccc(C(=O)N2CCOCC2)cc1	1.6	0.1	2.0	0.675	3.2	7.7	1.9	i	4.0
Cc1nnc(SCC(=O)Nc2cc(C(N)=O)cc(C(N)=O)c2)n1-c1ccccc1	4.4	-1.0	-1.0	0.647	0.2	0.1	1.7	i	-6.5
CCOC(=O)[C@H]1[C@H]2COc3ccc(OC)cc3[C@@H]2N2C(=O)c3cc(C)ccc3NC(=O)[C@@]12C	-7.5	0.6	1.1	x	-5.9	-3.9	-1.1	i	x
CCC1CCCCN1S(=O)(=O)c1ccc(C(=O)Nc2nnc(-c3ccccc3Cl)o2)cc1 (configuration not stated)	20.4	5.1	-1.2	0.723	x	x	x	x	44.0
CCOc1ccc(N(CC(=O)Nc2ccc(C)cc2)S(=O)(=O)c2c(C)[nH]c(=O)[nH]c2=O)cc1	-3.6	1.8	1.4	0.651	-5.6	-4.3	-6.9	i	-5.8
CC(C)(C)N(NC(=O)c1ccccc1)C(=O)c1cccc(C(=O)N(NC(=O)c2ccccc2)C(C)(C)C)c1	0.8	2.4	-1.0	0.703	14.9	8.5	1.0	x	-13.0
CN(C)CCCNc1ncnc2c1cnn2-c1ccccc1	-10.6	2.0	2.5	0.712	x	x	x	x	-10.2
CCOC(=O)Cc1csc(Nc2ccc(Cl)cc2)n1	5.8	3.3	-2.6	0.685	-17.4	-5.1	-0.1	i	10.9
COc1ccc(-c2cc(C(=O)N(C)Cc3ccccc3)no2)cc1OC	-15.8	5.2	3.4	0.625	-10.4	-3.1	-3.2	i	-7.0
O=C(CSc1nc2ccccc2[nH]1)Nc1ccc2[nH]c(=O)[nH]c2c1	7.4	4.4	-1.3	0.633	15.3	11.1	1.4	i	98.5*
COc1ccc(CN(C(C)=O)c2ccccc2C(=O)O)cc1	-2.9	3.7	-2.8	0.718	10.1	3.6	-2.4	i	3.4
Cc1ccc(NC(=O)C2COc3ccccc3O2)nc1 (configuration not stated)	-6.5	2.3	2.7	0.78	x	x	x	x	-1.2
Cc1ccnc(SCC(=O)Nc2cc(C)on2)n1	17.4	4.7	-1.9	0.693	10.0	11.5	-0.1	i	-24.7
Cc1[nH]c2ccc(C(=O)O)cc2c1C	3.6	0.4	6.4	0.649	x	x	x	x	10.4

Not all compounds are listed, so the mix of outcomes need not match the whole.
